GLA inh pH 4.5: inhibitors of human alpha-galactosidase A at pH 4.5; P06280; purified enzyme, 4-MU-alpha-Gal fluorescence, pH 4.5; activity change, negative = inhibition, % at 105 µM; 230,000 tested, under 10 active; inconclusive = small, poorly fitted or top-dose-only inhibition, or a rising curve; inactive = flat fitted curve, though single readings scatter; no compound was filed as active;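 note: 0% = full activity with enzyme and -100% = basal without enzyme; dose as in the result columns while the protocol names 77 µM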
Target sequence (P06280 whole entry, looked up): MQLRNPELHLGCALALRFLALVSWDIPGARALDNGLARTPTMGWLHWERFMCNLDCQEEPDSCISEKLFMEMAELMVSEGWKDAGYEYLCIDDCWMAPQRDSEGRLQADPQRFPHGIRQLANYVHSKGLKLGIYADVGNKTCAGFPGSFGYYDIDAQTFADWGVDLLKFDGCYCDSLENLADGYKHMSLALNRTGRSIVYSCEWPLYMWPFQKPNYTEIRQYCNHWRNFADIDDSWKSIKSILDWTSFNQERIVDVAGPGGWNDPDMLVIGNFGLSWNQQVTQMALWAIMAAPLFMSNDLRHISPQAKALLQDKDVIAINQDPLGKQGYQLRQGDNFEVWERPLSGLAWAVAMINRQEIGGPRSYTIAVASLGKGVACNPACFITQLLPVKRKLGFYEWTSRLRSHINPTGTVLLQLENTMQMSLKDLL
miR-21 FLuc: miR-21 reporter, rising signal. AID 2288. 340,000 tested, under 10 active. HeLa miR-21 FLuc reporter, luciferase, 48 h. Potency, µM (titrated, usually from 38.3 µM), for inactives: at the highest dose reporter change, positive = more light; active = well fitted rising curve with a large enough effect; inconclusive = small, poorly fitted or top-dose-only effect; inactive = no such curve, though single readings can be large or run the other way;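 note: % of control where 0% means no effect; miR-21 action dims this reporter so a rising signal means less miR-21 action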
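HeLa cells endogenously expressing miR-21, stably carrying CMV-driven firefly luciferase with a downstream miR-21 binding site, 2000 cells/well. Titrations up to approximately 40 uM, 48 hours; luciferase luminescence read.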
Rango dissoc inh: prevents RanGTP from dissociating the Rango-importin beta complex; O95149+P62826; Potency, µM (titrated, usually from 46.1 µM), for the others: at the highest dose activity change, negative = inhibition; Biochemical FRET Rango-importin beta, RanGTP-induced dissociation; hit rate 0.071% among 340,000; active means falling FRET ratio curve, often poorly fitted, with flat reads before Ran was added; inconclusive means other falling curves, or compound fluorescence or quenching; inactive means flat or rising ratio curve;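 note: potency is the fitted concentration of half-maximal effect; % of control where 0% means no effect; nearly all actives have a fitted effect of over 45% in size; -100% = wells without RanGTP and RCC1; the record marks most hits as doubtful in a second field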
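Rango/importin beta premix (0.1/0.25 uM final), PBS + 1 mM DTT + 0.02% Tween-20 + 0.1% BSA; cpd 5 min RT; FRET pre-read; + RanGTP-RCC1 (0.6 uM Ran, 2 mM GTP, 0.2 uM RCC1); 45 min RT; FRET post-read, ex 430, em 486/530 nm.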
Rango-impB inh: Rango-importin beta binding inhibition; Q14974; Rango CFP/YFP FRET sensor + importin beta, 45 min; Potency, µM (doses to about 92.2 µM), for inactives: top-dose inhibition of complex formation; hit rate 0.031% among 340,000; active = rising FRET ratio curve, often small or poorly fitted; inconclusive = mostly compound fluorescence or quenching in the first reads; inactive = flat curves in all reads;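 note: potency is the fitted concentration of half-maximal effect; 0% = DMSO wells and 100% = buffer wells lacking importin beta; nearly all actives have a fitted effect of over 15% in size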
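FRET biosensor Rango (snurportin 1 IBB between N-terminal EYFP and C-terminal Cerulean), 50 nM in PBS/1 mM DTT/0.02% Tween-20/0.1% BSA, preincubated 5 min RT with compound; 0.125 microM importin beta added, 45 min RT, CFP/YFP FRET ratio read.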
Active calls of the source: *; ? = inconclusive; / = no result given; & = joins results of further samples.

SMILES	GLA inh pH 4.5	miR-21 FLuc	Rango dissoc inh	Rango-impB inh
CC(=O)N1c2ccc(S(=O)(=O)N(C)CC(=O)Nc3cccc(C)c3)cc2CC1C (stereo not drawn)	/	-1.3%	-8.0%	?
O=C(COC(=O)c1cnccn1)N=c1sccn1Cc1ccccc1Cl	/	/	14.0%	0.1%
CC(C)(C)OC(=O)N1CCCC(C(=O)Nc2cccc(C(=O)NCCCc3ccccc3)c2)C1 (stereo not drawn)	/	/	-3.1%	2.6%
Cc1ccc2c(c1)N(C)/C(=C/c1cccc[n+]1C)S2	/	28.7%	?	?
CC(C)(C)n1ncc2c(=O)n(CC(=O)OCc3ccccc3)cnc21	-1.4	-25.8%	7.8%	0.8%
COc1ccc(/C=N/c2c(-c3ccc(OC)cc3)nc3n2CCS3)cc1	3.2	-24.9%	2.0%	0.5%
Cc1cccnc1NS(=O)(=O)c1cccc([N+](=O)[O-])c1	5.0	0.8%	1.9%	-0.5%
CCC(C)Nc1nc(OC(C(F)(F)F)C(F)(F)F)nc(OC(C(F)(F)F)C(F)(F)F)n1 (stereo not drawn)	5.9	-2.1%	-11.9%	-3.4%
COc1cc(NC(=O)CSc2nnnn2Cc2ccc3c(c2)OCO3)cc(OC)c1	-3.4	-9.4%	-1.5%	3.9%
CCC(=O)Nc1ccc(NC(=O)c2ccco2)c(OC)c1	1.2	-43.8%	-2.5%	2.4%
COc1cccc(NC(=S)NCc2ccc(F)cc2)c1	/	3.0%	9.2%	-0.7%
CCOc1ccc(-c2ccc(SC)nn2)cc1	-1.8	23.1%	-11.0%	-5.9%
COc1ccc(CCNC(=O)CNC(=O)c2ccc(Br)o2)cc1OC	/	/	-8.9%	-0.2%
O=S(=O)(NCc1ccco1)c1ccc(S(=O)(=O)N2CCCCC2)cc1	-24.2	-9.0%	-8.2%	-3.7%
COCCCn1c(-c2ccccc2Cl)n[nH]c1=S	-2.9	-2.9%	9.9%	-5.6%
CC(=O)Oc1ccc2oc(-c3ccccc3)c(C(N)=O)c2c1	11.6	-6.0%	-13.0%	-2.6%
Cc1nc(SCC(=O)N(CC(C)C)C2CCS(=O)(=O)C2)c2ccccc2n1 (stereo not drawn)	/	/	-13.3%	1.8%
O=C(CCN1C(=O)c2ccccc2C1=O)N1CCN(c2ccccn2)CC1	-8.7	-2.1%	-0.1%	?
CCN(C(=O)CSc1nc2cc(S(=O)(=O)N(CC)CC)ccc2n1CC)C1CCS(=O)(=O)C1 (stereo not drawn)	/	/	9.6%	0.7%
CC(Oc1ccc(C(=O)c2ccccc2)cc1)C(=O)Nc1ccc(S(N)(=O)=O)cc1 (stereo not drawn)	2.8	2.7%	-1.9%	-0.2%
COCc1ccc(C(=O)N2CCCC(C(=O)c3ccc(SC)cc3)C2)s1 (stereo not drawn)	/	0.7%	0.4%	-0.2%
CCc1ccc(NC(=O)CS(=O)CC(=O)Nc2ccc(-n3cnnn3)c(C)c2)cc1 (stereo not drawn)	/	-3.7%	18.4%	3.9%
O=C(OCCN(C1=NS(=O)(=O)c2ccccc21)c1ccc(Cl)cc1)c1ccco1	-4.2	-2.4%	1.8%	-0.1%
OC(CSc1ccccc1Cl)CN1CCN(c2ccc(F)cc2)CC1 (stereo not drawn)	-21.0	3.4%	33.9%	3.4%
Cc1ccc(-c2nnc(SCC(=O)N/N=C/c3ccc(C)s3)n2-c2ccccc2)cc1	-6.2	-10.4%	-13.6%	0.5%
(listing goes on)
SMILES	GLA inh pH 4.5	miR-21 FLuc	Rango dissoc inh	Rango-impB inh
COc1ccc(-c2nn(-c3ccccc3)cc2C(=O)Nc2cccc(C(=O)O)c2)cc1[N+](=O)[O-]	/	-10.1%	-8.9%	-0.3%
COc1ccc(CCN2C(=O)C3C(C2=O)C2C=CC3C23CC3)cc1OC (stereo not drawn)	3.3	1.0%	-28.8%	-3.1%
COc1cccc(C2C(C(N)=O)=C(C)Nc3nc(CCCO)nn32)c1 (stereo not drawn)	/	2.9%&-2.0%	1.3%	0.9%
CCn1cc(CN(C)S(=O)(=O)c2ccc3ccccc3c2)c(C)n1	2.9	21.9%	-4.0%	0.1%
Cc1nc(NC2=NCN(Cc3cccnc3)CN2)nc2ccccc12	4.5	0.9%	8.4%	-0.3%
CCS(=O)(=O)N1CCC(C(=O)Nc2ccc(C(C)=O)cc2)CC1	/	0.2%	-3.2%	0.3%
O=S(=O)(Nc1ccon1)c1ccc(Br)s1	/	-3.1%	6.0%	4.8%
O=C(c1ccco1)N1CCCC(c2nc(-c3ccc(S(=O)(=O)NCc4ccccc4)cc3)no2)C1 (stereo not drawn)	0.0	24.0%	-0.4%	1.7%
O=C(O)c1ccc(Cl)c(NC(=S)NC(=O)c2ccccc2[N+](=O)[O-])c1	-2.1	-2.0%	5.7%	2.4%
COc1ccc(N(C)C(=O)CN(C)S(=O)(=O)c2ccc3c(c2)c(=O)n(C)c(=O)n3C)c(OC)c1	/	-2.6%	-10.5%	1.4%
N#Cc1cc(-c2ccccc2)cn(Cc2c(Cl)cccc2Cl)c1=O	25.7	-11.4%	4.1%	0.0%
CCCCCn1c(CN2CCN(Cc3ccccc3)CC2)nc2c1c(=O)[nH]c(=O)n2C	-7.2	-4.7%	-5.5%	0.3%
O=C(c1cnc2n(c1=O)CCS2)N1CCN(c2ccc(Cl)c(Cl)c2)CC1	-16.8	0.7%	14.1%	0.4%
Cc1cc2ncc(-c3ccccc3)nc2cc1C	/	-64.2%	-7.5%	3.4%
Cc1ccccc1NC(=O)OCc1cccnc1Oc1ccc(Cl)cc1	-12.5	-9.3%	1.4%	-4.1%
COc1cc(OC)cc(-c2sc3ccc(OC)cc3c2-c2ccc3cc[nH]c3c2)c1	/	/	-11.4%	4.5%
N#Cc1ccc(-c2ccco2)nc1SCc1ccccc1	-6.0	5.2%	4.3%	-2.7%
Cc1ccc(-c2nnc(SC(C)C(=O)NCC3CCCO3)nc2-c2ccc(C)cc2)cc1 (stereo not drawn)	/	/	1.7%	0.1%
Cc1ccccc1OCC(=O)N/N=C/c1ccccn1	2.4	-2.1%	10.4%	0.4%
O=[N+]([O-])/C=C1\C=CC=CN1Cc1ccc(Cl)cc1	/	-1.6%	10.1%	3.3%
COc1ccc(OC)c(C2CC(=O)N3CN(c4ccc(C)c(Cl)c4)CSC3=C2C#N)c1 (stereo not drawn)	0.1	-8.6%	-17.3%	?
C[C@@H]1CCC[C@@]2(O[C@H](CCO)C[C@@H](O)[C@@H]2O)O1	2.0	-5.6%	-9.1%	-4.7%
CC(C)(C)OC(=O)N[C@H]1C=C[C@@H](OC(=O)CC(=O)OCC(F)(F)F)C1	/	/	-1.0%	0.5%
O=C(CC1CC2CCC1C2)NCCc1ccc(Cl)cc1 (stereo not drawn)	/	-22.6%	-1.3%	-0.8%
CCN(CC)c1ccc(/C=N/NC(=O)c2ccc([N+](=O)[O-])cc2)cc1	0.7	-2.3%	5.7%	3.4%
New compounds follow
SMILES	GLA inh pH 4.5	miR-21 FLuc	Rango dissoc inh	Rango-impB inh
CCOC(=O)NNC1CC(=O)N(c2ccccc2)C1=O (stereo not drawn)	-1.4	0.8%	-16.6%	1.7%
Cc1ccc(S(=O)(=O)N2CCCC(C(=O)N3CCCc4ccccc43)C2)cc1 (stereo not drawn)	7.7	-6.4%	3.3%	-3.5%
CSc1sc(C(=O)NC(=O)NCc2ccncc2)c(C)c1-c1ccon1	-2.3	8.3%	-5.7%	2.7%
CCOc1ccc(N2CC(C(=O)N3CC(C)OC(C)C3)CC2=O)cc1 (stereo not drawn)	/	-2.3%	-5.4%	-0.8%
O=c1c2c(-c3cccs3)csc2ncn1-c1ccccc1	-11.4	-22.0%	1.5%	-1.1%
Cc1ccn(-c2ccc([N+](=O)[O-])cc2)n1	-0.3	-15.6%	-19.8%	0.6%
CCOC(=O)c1cc2c(ccn2C)n1CC(=O)Nc1ccc(F)cc1	5.5	-4.4%	0.4%	?
CCCCCc1nc(-c2nonc2N)no1	-1.8	-9.6%	1.5%	1.0%
CCNC(=S)NNC(=O)c1cc(-c2ccc(OC)cc2)nc2ccccc12	4.3	25.0%	-7.5%	-3.7%
COc1cc(OC)c(S(=O)(=O)NCc2cccnc2)cc1NC(C)=O	5.5	-0.2%	19.8%	3.0%
CC(C)CN(C(=O)c1cccc(S(=O)(=O)N2CCN(c3ccc(F)cc3)CC2)c1)C1CCS(=O)(=O)C1 (stereo not drawn)	/	/	-0.6%	-1.4%
Cc1cc(C)n(CC(=O)NN)n1	7.2	0.5%	-14.3%	2.6%
COC(=O)c1cn(C)c2ccc(S(=O)(=O)N3CC(C)CC(C)C3)cc2c1=O (stereo not drawn)	/	-5.5%	-6.3%	-0.1%
CCCCNCc1cc(OCC)c(OCC)cc1Br	-3.4	-4.1%	-14.5%	-1.1%
COCCNC(=O)C1CC(=O)N(c2ccc(OC)cc2)C1c1ccc(OC)cc1 (stereo not drawn)	-3.9	1.3%	-0.2%	-2.9%
Cc1ccc(S(=O)(=O)N2[C@@H](c3ccccc3)C(C(=O)O)=CC[C@H]2c2ccc(C(C)C)cc2)cc1	/	/	-2.7%	-2.9%
COc1ccc(Cl)cc1NC(=S)NCCCN1CCCC1=O	-0.9	-3.1%	-2.5%	-2.0%
CN1/C(=C\C(=S)Nc2ccccc2)C(C)(C)c2ccccc21	?	9.3%	-2.7%	-2.0%
Cc1ccccc1-n1c(=O)cc(N2CCCCCC2)[nH]c1=O	-6.9	0.6%	7.4%	-0.8%
CC(O)CSc1nc2c(c(=O)[nH]c(=O)n2C)n1Cc1ccccc1Cl (stereo not drawn)	/	-14.4%	15.6%	-6.0%
C=CCN1C=C2C(=O)C(C)(OC(=O)C3CCCC3)C(=O)C(c3ccccc3)=C2C=C1CCCC(=O)OC (stereo not drawn)	12.0&-25.3	-0.6%	?	?
Cc1ccc(S(=O)(=O)N2CCOCC2)cc1NC(=O)c1ccc(F)cc1F	/	/	0.8%	0.2%
CC(C)C[C@H]1CN([C@@H](CC(C)C)CN2CCCC2CN2C(=S)NC[C@@H]2Cc2ccc(O)cc2)C(=S)N1CC1CCCCCC1 (stereo partly drawn)	/	/	-14.7%	-0.4%
O=C(CSc1nc(=O)n(CCN2CCOCC2)c2c1CCCC2)Nc1cccc([N+](=O)[O-])c1	/	/	-24.7%	-5.2%
Nc1nonc1-n1nnc(C(=O)N/N=C/c2ccccc2Cl)c1-c1ccc2c(c1)OCO2	/	-1.1%	17.3%	0.1%
Further records follow.
SMILES	GLA inh pH 4.5	miR-21 FLuc	Rango dissoc inh	Rango-impB inh
Cc1noc(COc2ccccc2OCC(N)=O)c1Cl	-14.5	0.2%	-18.4%	-0.7%
COc1cc(NC(=O)C2CC3CCC2C3)c(OC)cc1Cl (stereo not drawn)	/	/	-1.4%	-2.4%
O=C(COc1cccc2c1CCNC2=O)Nc1cccc(F)c1	/	/	6.2%	0.0%
CC(C)(C)OC(=O)C[C@H]1C/C=C\C[C@@H](CC(=O)NCCO)C(=O)N[C@H](C(C)(C)C)COC1=O	/	/	13.5%	-1.7%
CCc1nc2cc(CC(=O)O)ccc2o1	6.0	-2.1%	-11.4%	0.4%
CC(C)c1nc(CNC(=O)CC2C(=O)NCCN2Cc2ccc(F)cc2Cl)cs1 (stereo not drawn)	/	-0.2%	-8.6%	?
CC12CN(C(=O)c3ccco3)CC(c3ccccc3)(CN(C(=O)c3ccco3)C1)C2=O	-3.4	-3.0%	-15.7%	0.5%
CN1/C(=C\C=C2/C(=O)Oc3ccccc3C2=O)C(C)(C)c2ccccc21	-6.8	-30.0%	?	?
CC1(c2ccccc2)NC(=O)N(CC(=O)N2CCOCC2)C1=O (stereo not drawn)	1.2	-0.8%	15.2%	0.2%
CNC(=O)CSc1nc2cc(S(=O)(=O)Nc3ccccc3OC)ccc2o1	/	-7.0%	-11.3%	-0.3%
COC(=O)C1=C(C)N(Cc2ccccc2)C(=NCc2cccc(Cl)c2)N[C@H]1c1cccc(F)c1	/	?	14.6%	-1.3%

Record cards, from the list above. Order of values: GLA inh pH 4.5 | miR-21 FLuc | Rango dissoc inh | Rango-impB inh
Cc1nc(SCC(=O)N(CC(C)C)C2CCS(=O)(=O)C2)c2ccccc2n1 (stereo not drawn) as listed: / | / | -13.3% | 1.8%
CC(=O)N1c2ccc(S(=O)(=O)N(C)CC(=O)Nc3cccc(C)c3)cc2CC1C (stereo not drawn) as listed: / | -1.3% | -8.0% | ?

From PubChem

This is a subset; rates above refer to the full screens.
